Screens: PubChem BioAssay, ICCB-Longwood Screening Facility, Harvard Medical School
GIV Gai3 FP: inhibitors of GIV GBA-motif binding to rat Galpha-i3; 210,000 tested, 0.42% active; Galpha-i3/FITC-GIV peptide fluorescence polarization, 90 min; hits give low values; scaled: aluminum fluoride 0%, vehicle 100%; P08753; AID 1224905; percent of control (FP), % (concentration not given with the values);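 active means replicate mean at 85% of control or lower, very high polarization wells dropped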;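 further: wells of about 15 µL received 100 nL stock; the first replicate is given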
Target sequence (P08753 whole entry, looked up): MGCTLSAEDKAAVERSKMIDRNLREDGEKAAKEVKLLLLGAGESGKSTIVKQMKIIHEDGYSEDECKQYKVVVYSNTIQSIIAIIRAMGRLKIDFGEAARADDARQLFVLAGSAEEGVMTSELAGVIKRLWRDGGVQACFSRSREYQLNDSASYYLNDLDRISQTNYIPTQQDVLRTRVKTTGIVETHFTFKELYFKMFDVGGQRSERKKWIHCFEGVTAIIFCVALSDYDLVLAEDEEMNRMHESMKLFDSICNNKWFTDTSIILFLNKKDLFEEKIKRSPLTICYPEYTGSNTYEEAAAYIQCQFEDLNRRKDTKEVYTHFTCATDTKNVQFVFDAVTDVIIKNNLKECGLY
Sa growth 42C: blocks Staphylococcus aureus growth | S. aureus RN4220 growth, OD600, 20 h, 42 °C; hits give low values | relative growth, % (no concentration beside the values) | 170,000 tested, 0.53% active;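 active means growth at 42 °C up to 50% and 20 or more points under that at 30 °C, or under 10% at both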;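 further: 300 nL library stock went into each well; scaled to the means of positive and negative controls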
HCMV UL50-53 inh: cytomegalovirus nuclear egress complex inhibition; HTRF UL50-UL53 interaction, normalized percent inhibition; inhibition, % (test concentration not listed); 190,000 tested, 0.15% active; AID 1918969;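 active means both replicates at 50% or more, plus weaker picks with an unusually low signal ratio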;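 further: stock transfer was 100 nL into about 20 µL; 0% = negative control wells and 100% = wells with untagged competitor protein; inactives centre near -12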
Sa growth 42C second temp: further read-out of Sa growth 42C, marked with its call; relative growth, %; measured here: growth at 30 °C;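 optical density after 20 h as mean of two plates; 100% = untreated growth and lower means inhibition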
The depositor's hits bear a star; nt = no result given; & = joins results of further samples.

The first 2 entries (preview)
SMILES	GIV Gai3 FP	Sa growth 42C	Sa growth 42C second temp	HCMV UL50-53 inh
O=c1oc2ccccc2n1Cc1nnc(-c2ccccc2)o1	99.6	107.3	74.6	nt
CCC(=O)Nc1nc2c(OC)cc(NC(=O)Nc3cc(Cl)ccc3OC)cc2s1	98.1	nt	nt	-28.9

The listing, from the start:
SMILES	GIV Gai3 FP	Sa growth 42C	Sa growth 42C second temp	HCMV UL50-53 inh
O=c1oc2ccccc2n1Cc1nnc(-c2ccccc2)o1	99.6	107.3	74.6	nt
CCC(=O)Nc1nc2c(OC)cc(NC(=O)Nc3cc(Cl)ccc3OC)cc2s1	98.1	nt	nt	-28.9
CC(C)(C)C1CCc2c(sc(NC(=O)C3c4ccccc4Oc4ccccc43)c2C(N)=O)C1 (centres undefined)	101.9	111.0	95.4	13.1
O=C(Oc1ccc(C=Nc2ccc(F)cc2)cc1)c1cccs1	nt	82.7	77.5	-1.0
Cc1cc(C(=O)CSC2=N/C(=C\c3ccco3)C(=O)N2c2ccc(OC(F)F)cc2)c(C)n1CC1CCCO1 (centres undefined)	nt	95.2	93.5	-5.9
O=C(c1ccccc1)c1ccc(F)cc1	97.9	105.0	89.2	-20.0
NC(=O)C1c2ccccc2Oc2ccccc21	108.7	21.4	17.7	-3.4
O=C(/C=C/c1ccccc1)N1CCN(c2ccc(N3CCCCC3)nn2)CC1	102.2	97.2	91.2	-52.4
O=C1OC(c2ccccc2)/C(=C(\O)c2ccccc2)C1=O (centres undefined)	nt	119.0	88.0	-24.7
Cc1sc2nc(C(=O)Oc3ccc(F)cc3)cc(N)c2c1C	nt	84.8	92.4	-9.9
Cc1nn(CC(=O)N2CCCC2)c(=O)c2nn(-c3ccccc3)c(C)c12	108.4	97.5	89.4	-27.2
O=C1CC(C(=O)Nc2ccccc2)N=C(Nc2nc3ccccc3s2)N1 (centres undefined)	103.3	126.2	88.6	nt
O=c1c(Cl)c(NCCc2ccccc2)cnn1-c1ccccc1	nt	92.3	105.3	-14.2
N#Cc1c(C(F)(F)F)cc(-c2ccccc2)nc1SCC(=O)N1CCCCC1	99.3	103.0	86.9	nt
COc1ccc(N2C(=O)CSC23C(=O)N(CC(=O)NCc2ccccc2)c2ccccc23)cc1 (centres undefined)	106.8	110.3	88.3	nt
Cc1nnsc1C(=O)Nc1sc2c(c1C(=O)NCC1CCCO1)CCC2 (centres undefined)	92.6	nt	nt	-25.5
CCCN1CCN(CCCNC(=O)c2cc3c(=O)[nH]c4ccccc4c3s2)CC1	105.9	108.2	86.6	-44.7
O=c1cc(CN2CCCC2)nc2nc(NCc3ccc(F)cc3)[nH]n12	98.0	nt	nt	13.0
COc1ccc(NC(=O)c2c(C)oc3c(F)c(F)c(F)c(F)c23)c(OC)c1	106.7	106.0	106.6	0.7
COc1ccc(Nc2c3c(nc4ccc(NC(=O)c5ccc(F)cc5)cc24)CCCC3)cc1OC	107.4	103.8	71.2	-80.7
Oc1ccccc1OCCCCCOc1ccccc1O	109.1	84.9	78.5	-21.3
COC(=O)c1ccccc1NC(=O)c1nsc2ccccc12	101.7	nt	nt	-0.5
COc1cc(/C=C(\C#N)c2nc3ccccc3[nH]2)ccc1OCc1cccc(C(F)(F)F)c1	107.4	88.3	91.0	8.7
CCN(C(=O)c1cc2c(=O)oc3ccccc3c2s1)c1cc(OC)ccc1OC	101.2	101.4	103.2	3.6
O=C(CN1CCc2ccccc21)NC(=O)Nc1ccc2c(c1)OCCO2	nt	129.0	86.2	-17.7
O=c1cc(-c2cccc(O)c2)oc2ccc(O)cc12	nt	118.7	93.8	-13.0
COC(=O)c1ccc(NS(=O)(=O)c2ccc3c(c2)n(C)c(=O)c(=O)n3C)cc1	100.6	95.4	101.0	-6.8
CC(=O)Nc1sc2c(c1-c1nsc(=O)o1)CCCC2	nt	90.5	77.7	-3.8
CCOC(=O)c1ccccc1NC(=O)CSCc1ccccc1	105.9	110.1	108.7	4.9
Cc1ccc(SCC(=O)Nc2cc(C)on2)cc1	101.9	122.8	82.2	nt
Nc1cc(-c2nn[nH]n2)ccc1F	106.5	107.8	87.7	-38.2
CN1CCN(C(=S)c2ccc(F)cc2)CC1	105.5	99.4	93.6	0.5
COc1cc(C(=O)OC(Cc2ccccc2)C(F)(F)F)cc(OC)c1OC (centres undefined)	100.3	83.8	85.9	-42.3
COc1ccc(C)cc1S(=O)(=O)Nc1ccc2c(c1)CCCN2S(C)(=O)=O	105.2	nt	nt	-5.2
CCOc1ccc(-c2cc(C(=O)NCc3ccc(OC)cc3)c3c(-c4ccc(F)cc4)[nH]nc3n2)cc1	102.7	84.5	85.8	nt
Cc1cccc(CN2CCC(CNC(=O)COc3cc(=O)n(C)c4ccccc34)CC2)c1	106.8	102.5	86.3	-6.5
CCOC(=O)c1ccc(NC(=O)C2=CC(=O)N3CCN=C3S2)cc1	101.8	83.8	65.4	-25.8
O=C(CSc1nc2ccccc2[nH]1)CSc1nc2ccccc2[nH]1	nt	97.8	93.5	6.0
Cc1nn(-c2nc(-c3ccco3)cc(C(F)(F)F)n2)c(C)c1Br	107.6	103.5	98.8	3.7
CCC(C)N1CCN(C(=O)C(c2ccccc2)c2ccccc2)CC1 (centres undefined)	nt	91.3	88.2	-8.6
Cc1cc(OCC(=O)N(Cc2sccc2C)C2CCS(=O)(=O)C2)ccc1Cl (centres undefined)	101.2	114.1	84.1	-7.3
O=C(NCCC1=CCCCC1)c1ccc2c(c1)OCO2	103.7	124.2	85.1	nt
CCOC(=O)c1c(C)[nH]c(C)c1S(=O)(=O)N(C)CC(=O)N1CCN(c2ccccc2)CC1	103.8	83.1	86.1	nt
CCc1nnc2n1NC(c1ccccc1)C(C(=O)Nc1ccccc1C)S2 (centres undefined)	101.6	nt	nt	5.0
Cc1cc(Cl)ccc1OCC(=O)Nc1sc2c(c1C#N)CCC2	nt	91.4	84.8	-7.1
COc1ccc(/C=N/N2C(=O)C3C4C=CC(C4)C3C2=O)cc1Br (centres undefined)	98.7	92.9	111.4	-18.2
CC(=O)Nc1ccc(NC(=O)CC(NC(C)=O)c2ccccc2)cc1 (centres undefined)	nt	86.8	95.4	-5.9
CCn1c(CN2CCCCC2)nc2cc(NC(=O)c3ccccc3[N+](=O)[O-])ccc21	103.3	95.7	82.8	-46.0
O=C(COCc1cc(-c2ccc(F)cc2)on1)Nc1cc(Cl)ccc1O	103.1&102.9	84.2	87.1	-42.8&-26.7
O=c1c2ccccc2c(/C=N/c2n[nH]c(CCCO)n2)c(O)n1-c1ccccc1Cl	nt	101.9	70.6	-73.7

Not a retest: an excerpt of the list.
SMILES	GIV Gai3 FP	Sa growth 42C	Sa growth 42C second temp	HCMV UL50-53 inh
CCn1c(CN2CCCCC2)nc2cc(NC(=O)c3ccccc3[N+](=O)[O-])ccc21	103.3	95.7	82.8	-46.0
O=C(COCc1cc(-c2ccc(F)cc2)on1)Nc1cc(Cl)ccc1O	103.1&102.9	84.2	87.1	-42.8&-26.7
O=c1c2ccccc2c(/C=N/c2n[nH]c(CCCO)n2)c(O)n1-c1ccccc1Cl	nt	101.9	70.6	-73.7

More structures follow.
SMILES	GIV Gai3 FP	Sa growth 42C	Sa growth 42C second temp	HCMV UL50-53 inh
CC(C)(C)c1ccc(-c2noc(CSc3n[nH]c(=O)n3-c3cccnc3)n2)cc1	100.6	96.6	73.5	-35.7
CCOc1cc(/C=C2\SC(N)=NC2=O)ccc1OCc1ccc(C)cc1	105.3	nt	nt	-23.8
COc1ccc(-c2nc(OCC(=O)Nc3ccc(OC)c(OC)c3)c3c4c(sc3n2)CCCC4)cc1	103.1	nt	nt	-34.8
CCOC(=O)N1CCN(Cn2nc(-c3ccc(Cl)cc3)n(Cc3ccccc3)c2=S)CC1	103.3	107.2	96.3	-11.7
CCCSc1nnc2n(-c3ccc(OC)cc3)c(=O)c3c4c(sc3n12)COC(C(C)C)C4 (centres undefined)	109.9	119.4	92.4	-16.3
CC1(C)CC(NCc2cn(CCC#N)nc2-c2ccccc2)CC(C)(C)N1	nt	93.2	86.0	-16.3
CCC(=O)N1CCN(c2nnc(-c3ccccc3)c3ccccc23)CC1	99.7	90.8	71.5	nt
CC1=NN(c2ccc(S(N)(=O)=O)cc2)C(=O)/C1=C\c1ccc(-c2ccc([N+](=O)[O-])cc2)o1	105.1	nt	nt	-31.9
CN(C)C(CNC(=O)CN1C(=O)c2ccccc2C1=O)c1ccccc1 (centres undefined)	nt	70.4	87.8	-23.4
COc1ccc(C(=O)Nc2ccc3nc(N4CCCCC4)cc(C)c3c2)c(OC)c1	100.2	98.7	92.8	-35.2
CSC(SC)=C(C#N)c1ccccn1	101.7	97.2	88.3	-10.7
CC1CN(C(=O)N2CCC(C(=O)NCCCc3ccccc3)CC2)c2ccccc2O1 (centres undefined)	105.8	108.7	104.8	-27.2
CCCNC(=O)c1oc2ccc3c(c2c1C)C(=O)CC(C)(C)O3	109.5	91.0	89.5	nt
Cc1ccccc1OC(C)C(=O)NCc1ccccc1 (centres undefined)	102.1	112.3	91.6	-1.1
Cc1ccc(C(=O)Oc2c(S(=O)(=O)c3ccccc3)c(C)nn2-c2ccccc2)cc1	102.1	105.6	85.7	0.0
Cc1ccc(N2CCN(C(=O)C3CCN(S(=O)(=O)c4ccc5c(c4)oc(=O)n5C)CC3)CC2C)cc1 (centres undefined)	105.7	95.1	104.5	4.8
COc1ccc(Nc2c3c(nc4nc(C)nn24)CCC3)cc1OC	102.9	nt	nt	6.5
CC1CCN(S(=O)(=O)c2ccc3nc(NCc4ccc(N(C)C)cc4)ccc3c2)CC1	111.2	68.6	90.8	nt
O=C(O)CCSc1cccc2ccccc12	89.5	108.2	93.6	4.7
O=C(c1cnn2c(C(F)(F)F)cc(-c3ccccc3)nc12)N1CCOCC1	100.1	82.9	80.2	-81.6

Gathered by group, the entries above with bromine
SMILES	GIV Gai3 FP	Sa growth 42C	Sa growth 42C second temp	HCMV UL50-53 inh
Cc1nn(-c2nc(-c3ccco3)cc(C(F)(F)F)n2)c(C)c1Br	107.6	103.5	98.8	3.7
COc1ccc(/C=N/N2C(=O)C3C4C=CC(C4)C3C2=O)cc1Br (centres undefined)	98.7	92.9	111.4	-18.2

Remaining list, next part
SMILES	GIV Gai3 FP	Sa growth 42C	Sa growth 42C second temp	HCMV UL50-53 inh
COc1ccc(N2C(=O)Cc3ccc(OC)cc3C2=O)cc1	96.9	94.6	88.5	-3.0
CCc1ccc(NC(=O)/C(C#N)=C/c2ccc(-c3ccc(S(=O)(=O)N4CCOCC4)cc3)o2)cc1	nt	78.7	26.3	-19.9
C/S(=N\S(=O)(=O)c1cccc2nsnc12)c1ncc(Cl)cc1C(F)(F)F (centres undefined)	102.2	89.5	87.5	-48.7
Cc1ccc(C2CCCN2S(=O)(=O)c2cnc[nH]2)cc1 (centres undefined)	101.4	nt	nt	-25.1
COC(=O)c1ccc(S(=O)(=O)NCCNc2cccc(C(F)(F)F)n2)n1C	110.2	103.9	93.0	-2.3
CSC(=S)Nc1ccc(-c2nc3ccc(C)cc3s2)cc1	nt	99.1	89.5	-5.0
CCN(CC)S(=O)(=O)c1ccc(C(=O)Nc2ccccc2-c2nc3ccccc3s2)cc1	102.0	nt	nt	-5.3
CN(C(=O)CSCc1ccco1)c1ccccc1	nt	107.3	83.3	-24.6
O=C(Cc1n[nH]c(=O)c2ccccc12)NC1=NCCS1	nt	103.8	95.1	10.7
Cc1cc(-c2nnc(CSc3nc4ccc(Cl)cc4[nH]3)o2)c(C)o1	nt	81.6	80.0	-26.2

Of the compounds above, these have a nitro group on carbon.
SMILES	GIV Gai3 FP	Sa growth 42C	Sa growth 42C second temp	HCMV UL50-53 inh
CCn1c(CN2CCCCC2)nc2cc(NC(=O)c3ccccc3[N+](=O)[O-])ccc21	103.3	95.7	82.8	-46.0
CC1=NN(c2ccc(S(N)(=O)=O)cc2)C(=O)/C1=C\c1ccc(-c2ccc([N+](=O)[O-])cc2)o1	105.1	nt	nt	-31.9

New compounds follow:
SMILES	GIV Gai3 FP	Sa growth 42C	Sa growth 42C second temp	HCMV UL50-53 inh
O=C(CSc1ccccc1)N1CCCCC1	107.3	122.3	101.6	2.4
CCc1ccc(CNC(=O)C2COc3ccccc3C2)cc1 (centres undefined)	105.3	92.7	90.8	nt
COc1ccc(CN(CCN(C)C)c2ncccn2)cc1	nt	88.5	88.3	-31.1
COc1ccc(C(N)=CC(=O)C(C)(C)C)cc1	92.9	132.3	121.0	-10.8
CC1(C)OC2C(O1)[C@@H](CO)O[C@H]2n1cnc2c(N)ncnc21 (some centres undefined)	108.6	91.4	76.3	-11.7
